Compound activity deposited in PubChem BioAssay by National Center for Advancing Translational Sciences (NCATS).
MARV entry inh: Marburg virus entry inhibition; Marburg virus pseudotyped entry inhibition, cell reporter; control for the full effect not named in the record; about a third of the inactives were read at about 46 µM; Potency, µM (series often up to 37.8 µM), for inactives: at the highest dose activity change, negative = inhibition, actives largely listed as inhibitors; AID 540276; hit rate 1.8% among 300,000; active = well fitted inhibition curve with a large enough effect; inconclusive = small, poorly fitted or top-dose-only effect, or effect the other way; inactive = flat fitted curve, though single readings scatter; tested in HEK293 cells; about a fifth of its hits are not listed in these tables; note: % is set by controls: 0 for no effect and ±100 for the full control effect; luciferase read-out
StopGo reporter: FMDV 2A StopGo reporter, luciferase signal; human cells with a luciferase reporter of 2A StopGo recoding; control for the full effect not named in the record; Potency, µM (highest dose often 57.9 µM), for the others: at the highest dose signal change, negative = less light; hit rate 1.2% among 410,000; active = well fitted falling curve with a large enough effect; inconclusive = small, poorly fitted or top-dose-only effect; inactive = no such curve, though single readings can be large or run the other way; tested in HEK293T cells; note: % is set by controls: 0 for no effect and ±100 for the full control effect; nearly all actives have a fitted effect of over 45% in size; luciferase light after 4 h
RE007 growth inh: less growth of the S. pombe RE007 Vpr strain; S. pombe RE007 Vpr strain, BacTiter-Glo ATP luminescence, 24 h; control for the full effect not named in the record; hit rate 0.21% among 360,000; AID 651644; Potency, µM (doses to about 92.2 µM), without a hit: top-dose activity change, negative = less growth; active = well fitted falling curve with a large enough effect; inconclusive = small, poorly fitted or top-dose-only effect; inactive = no such curve, though single readings can be large or run the other way;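 note: % is set by controls: 0 for no effect and ±100 for the full control effect; nearly all actives have a fitted effect of over 50% in size; the assay follows cell death caused by Vpr and the record does not say whether a fall means rescue or toxicity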
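Fission yeast strain RE007, carrying one chromosomally integrated HIV-1 vpr copy, was seeded at OD 0.01 in PMG+AL medium with 23 nL pinned compound. After 24 h at 30 °C and 99% humidity, viability was read by BacTiter-Glo luminescence.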
NS1 function inh: influenza NS1 inhibition. hit rate 0.4% among 270,000. Potency, µM (titrated, usually from 46.1 µM), for the others: at the top dose activity, positive = more growth. S. cerevisiae slowed by influenza A NS1, growth recovery by OD600; note: actives are rising curves; nearly all actives have a fitted effect of over 50% in size
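A cell-based growth assay was used: compounds that relieve NS1-induced slow growth of budding yeast raise OD600. Assay medium was yeast nitrogen base with ammonium sulphate and -URA supplement, pH 6.0, with 2% galactose.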
Cruzain Triton: inhibitors of Trypanosoma cruzi cruzain with detergent; Potency, µM, inactives show max response, negative = inhibition, most hits filed as inhibitors; purified cruzain, Z-FR-AMC fluorescence, 0.01% Triton; AID 1478; hit rate 0.43% among 200,000; active = well fitted curve in the direction sought with a large enough effect; inconclusive = small, poorly fitted or top-dose-only effect, or another doubt; inactive = no such curve, though single readings can be large; an effect the other way counts as inactive or inconclusive;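 note: plate controls were neutral wells for no effect and buffer without enzyme for full effect; nearly all actives have a fitted effect of over 40% in size; top concentration of the series not given in the record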
Target sequence (P25779 123-467 limits assumed): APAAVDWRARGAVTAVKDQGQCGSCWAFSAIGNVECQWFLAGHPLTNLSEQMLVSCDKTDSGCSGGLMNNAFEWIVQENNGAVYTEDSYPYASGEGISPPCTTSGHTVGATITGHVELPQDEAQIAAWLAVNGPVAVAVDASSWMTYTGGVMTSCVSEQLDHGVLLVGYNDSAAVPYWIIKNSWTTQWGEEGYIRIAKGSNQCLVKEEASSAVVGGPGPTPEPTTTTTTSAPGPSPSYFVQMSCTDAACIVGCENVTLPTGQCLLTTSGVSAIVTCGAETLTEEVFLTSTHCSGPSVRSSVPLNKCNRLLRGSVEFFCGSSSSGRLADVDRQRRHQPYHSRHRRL
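Compounds were screened in titration against cruzain (1.5 nM) with 0.01% Triton X-100 to counter colloidal aggregation. Activity was the AMC fluorescence increase over 60 s after adding 2 uM Z-FR-AMC at pH 5.5.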
Cruzain noTriton: cruzain (T. cruzi) inhibition without detergent | hit rate 2.3% among 200,000 | purified cruzain, Z-FR-AMC fluorescence, no detergent | P25779 | AID 1476 | Potency, µM, for inactives: max response, negative = inhibition, hits mostly inhibitors; active = well fitted curve in the direction sought with a large enough effect; inconclusive = small, poorly fitted or top-dose-only effect, or another doubt; inactive = no such curve, though single readings can be large; an effect the other way counts as inactive or inconclusive;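 note: plate controls were enzyme without inhibitor for no effect and buffer without enzyme for full effect; nearly all actives have a fitted effect of over 40% in size; top concentration of the series not given in the record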
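Purified cruzain at 1.5 nM, pre-incubated 15 min with compound at room temperature in 100 mM sodium acetate pH 5.5, 5 mM DTT, 0.00005% Triton X-100. Reaction started with 2 uM Z-FR-AMC; AMC fluorescence increase over 60 s gives rate.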
SARS PLpro yeast: inhibitors of SARS-CoV papain-like protease in yeast. S. cerevisiae expressing SARS-CoV PLpro, growth rescue; control for the full effect not named in the record. Potency, µM (highest dose often 32.9 µM), without a hit: at the highest dose activity, positive = growth rescue. hit rate 0.19% among 330,000. AID 485353; note: 0% is about no effect; nearly all actives have a fitted effect of over 55% in size; growth read by luminescence after 48 h
LASV entry inh: blocks Lassa virus binding to or entry into cells; Lassa virus pseudotype entry inhibition, cell reporter; control for the full effect not named in the record; Potency, µM (doses to about 37.9 µM), for the others: at the top dose activity change, negative = inhibition, actives largely listed as inhibitors; hit rate 1.2% among 300,000; AID 540256; active means well fitted inhibition curve with a large enough effect; inconclusive means small, poorly fitted or top-dose-only effect, or effect the other way; inactive means flat fitted curve, though single readings scatter; tested in HEK293 cells; note: % is set by controls: 0 for no effect and ±100 for the full control effect; nearly all actives have a fitted effect of over 50% in size; luciferase read-out
* = called active by the depositor; & = joins results of further samples; [ ] = remark or other dose. Unless noted, calls come from the whole dose curve; as a rule, active means well fitted rising curve with a large enough effect; inconclusive means small, poorly fitted or top-dose-only effect; inactive means no such curve, though single readings can be large or run the other way. Potency is the fitted concentration of half-maximal effect.

Results for COc1ccccc1OCCSc1nc2ccccc2n1CCC(=O)O ?
StopGo reporter: 10.6%; RE007 growth inh: -17.7%; NS1 function inh: 11.4%; SARS PLpro yeast: -0.2%

What do the screens show for `Nc1nnc(SCc2ccc([N+](=O)[O-])cc2)s1`?
MARV entry inh: 6.5%[46.1 µM]; StopGo reporter: 11.1%; RE007 growth inh: 7.7%; NS1 function inh: 6.0%; SARS PLpro yeast: 1.7%; LASV entry inh: -0.7%[46.1 µM]

How did O=C(O)C(c1ccccc1)N1CCCCC1 (stereo not given) do in these assays?
MARV entry inh: -4.8%[46.1 µM]; StopGo reporter: -6.2%; RE007 growth inh: -6.2%; NS1 function inh: 6.8%; SARS PLpro yeast: -0.1%; LASV entry inh: 17.4%[46.1 µM]

Results for CSc1nc2ncncc2[nH]1 ?
MARV entry inh: -3.0%[46.1 µM]; StopGo reporter: 17.8%; RE007 growth inh: 12.0%; LASV entry inh: -2.7%[46.1 µM]

What do the screens show for `CC(=O)N1CCc2cc(Br)cc(S(=O)(=O)NCc3ccc(Cl)cc3)c21`?
MARV entry inh: 3.6%[46.1 µM]; StopGo reporter: 37.3%[activator]; RE007 growth inh: -3.6%; NS1 function inh: 5.2%; SARS PLpro yeast: 2.3%; LASV entry inh: -8.2%[46.1 µM]

What do the screens show for `COc1ccc(Cc2nnc(SCC(=O)Nc3ccccc3C)n(N)c2=O)cc1`?
MARV entry inh: inconclusive; StopGo reporter: -17.4%; RE007 growth inh: 0.5%; SARS PLpro yeast: -0.7%; LASV entry inh: inconclusive

Results for Cc1ccc(-c2cc(NC(=O)C(C)Oc3ccccc3F)on2)cc1 (stereo not given) ?
MARV entry inh: 16.0%[46.1 µM]; StopGo reporter: -5.4%; Cruzain Triton: -11.1%; Cruzain noTriton: -10.4%; LASV entry inh: 15.2%[46.1 µM]

Results for O=C(CSCc1ccccc1)N1CCN(S(=O)(=O)c2cccc(F)c2)CC1 ?
MARV entry inh: inconclusive; StopGo reporter: -12.0%; RE007 growth inh: -1.8%; SARS PLpro yeast: 4.1%; LASV entry inh: -3.9%

How did Cc1csc(=O)n1CCC(=O)OCC(=O)N(CC(C)C)c1c(N)n(Cc2ccccc2)c(=O)[nH]c1=O do in these assays?
MARV entry inh: 12.2%; StopGo reporter: -7.6%; RE007 growth inh: -11.0%; NS1 function inh: 9.4%; SARS PLpro yeast: inconclusive; LASV entry inh: 6.3%

What do the screens show for `COc1ccc(CC(=O)NCc2ccc3c(c2)CCN3C(=O)c2ccc(Cl)cc2)cc1OC`?
StopGo reporter: inconclusive; Cruzain Triton: -4.2%; Cruzain noTriton: inconclusive; LASV entry inh: 11.2µM*

Results for CCOC(=O)C1CCCN(C(=O)c2cccc(S(=O)(=O)N(C)c3c(C)n(C)n(-c4ccccc4)c3=O)c2)C1 (stereo not given) ?
MARV entry inh: 19.0%; StopGo reporter: -7.8%; RE007 growth inh: -4.4%; NS1 function inh: -7.9%; SARS PLpro yeast: -5.6%; LASV entry inh: 16.9%

How did CCc1c(C)nc2ncnn2c1N1CCN(S(=O)(=O)c2ccc(OC)cc2)CC1 do in these assays?
MARV entry inh: inconclusive; StopGo reporter: -29.9%; RE007 growth inh: 11.5%; NS1 function inh: 4.1%; SARS PLpro yeast: -0.7%; LASV entry inh: inconclusive

What do the screens show for `Cc1ccnc(NC(=O)CCC(=O)N(CC(=O)NCc2ccccc2)Cc2ccccc2)c1`?
MARV entry inh: -4.6%[46.1 µM]; StopGo reporter: 7.3%; RE007 growth inh: 13.3%; NS1 function inh: -19.6%; SARS PLpro yeast: -0.5%; LASV entry inh: inconclusive

Results for CSc1ccccc1NC(=O)c1ccc(N2CC3CC(C2)c2cccc(=O)n2C3)c(NC(=O)c2cccnc2)c1 (stereo not given) ?
StopGo reporter: -11.9%; RE007 growth inh: 9.2%; NS1 function inh: 2.7%; SARS PLpro yeast: -4.2%

Results for COc1c(Cl)cc(Cl)cc1/C=N/n1cnnc1 ?
MARV entry inh: -0.2%; StopGo reporter: 3.9%; RE007 growth inh: 10.7%; NS1 function inh: -38.7%; Cruzain Triton: -3.2%; Cruzain noTriton: 10.6%; SARS PLpro yeast: -4.1%; LASV entry inh: -6.9%

Results for COc1cc(Cl)cc(CN2CCC(CCC(=O)NC3CC3)CC2)c1OC ?
StopGo reporter: -24.0%; RE007 growth inh: -5.5%; NS1 function inh: inconclusive; SARS PLpro yeast: -3.2%

What do the screens show for `COc1cc2c(cc1OC)C(Nc1ccc(S(N)(=O)=O)cc1)=NC(C)(C)C2`?
MARV entry inh: inconclusive; StopGo reporter: 5.5%; RE007 growth inh: -17.1%; NS1 function inh: 8.9%; Cruzain Triton: 1.2%; Cruzain noTriton: 5.3%; SARS PLpro yeast: 2.3%; LASV entry inh: 3.0%

Results for O=C(NCCc1ccccn1)c1n[nH]c(=O)c2ccccc12 ?
MARV entry inh: 25.0%; StopGo reporter: 12.2%; RE007 growth inh: 8.4%; NS1 function inh: -11.5%; Cruzain Triton: 1.5%; Cruzain noTriton: -2.4%; SARS PLpro yeast: 0.8%; LASV entry inh: -3.3%

What do the screens show for `COc1cccc(O)c1CN1CCC(Oc2ccc(C(=O)NCc3ccccn3)cc2)CC1`?
StopGo reporter: -26.4%; RE007 growth inh: -8.1%; NS1 function inh: -6.2%; SARS PLpro yeast: -3.8%

How did CC1CCCC(NC(=O)CN2CCN(S(=O)(=O)c3ccc(Br)s3)CC2)C1C (stereo not given) do in these assays?
MARV entry inh: -19.3%; StopGo reporter: inconclusive; RE007 growth inh: -9.0%; SARS PLpro yeast: -6.1%; LASV entry inh: -17.6%

Results for NC(=O)c1ccc(Oc2ccc3ccc(=O)oc3c2)c([N+](=O)[O-])c1 ?
MARV entry inh: inconclusive; StopGo reporter: 6.7%; RE007 growth inh: 12.6%; NS1 function inh: 3.1%; SARS PLpro yeast: 0.0%; LASV entry inh: 3.2%[46.1 µM]

How did C/C(=N\Nc1ccc(Cl)c(C(=O)O)c1)c1ccccn1 do in these assays?
StopGo reporter: 1.2%; RE007 growth inh: -2.1%; NS1 function inh: 4.8%; SARS PLpro yeast: -3.7%

What do the screens show for `Cc1c(C)n(CCc2ccccc2)c2ncnc(NN)c12`?
MARV entry inh: -22.9%[46.1 µM]; StopGo reporter: -10.4%; RE007 growth inh: -16.1%; NS1 function inh: 0.4%; SARS PLpro yeast: -2.2%; LASV entry inh: -21.3%[46.1 µM]

Results for CC1C(=O)Nc2ccc(S(=O)(=O)Nc3ccccc3Br)cc2NC1=O (stereo not given) ?
MARV entry inh: inconclusive; StopGo reporter: -14.0%&-17.1%; RE007 growth inh: 11.0%; NS1 function inh: 2.4%; Cruzain Triton: 0.1%; Cruzain noTriton: -7.4%; SARS PLpro yeast: 4.3%; LASV entry inh: 5.5%[46.1 µM]

Results for O=C(O)C(=Cc1ccccc1[N+](=O)[O-])c1ccccc1 ?
MARV entry inh: inconclusive; StopGo reporter: -5.9%; RE007 growth inh: -23.0%; LASV entry inh: -6.4%[46.1 µM]

What do the screens show for `Cc1cc(OC(C)C(=O)NCC2CCC(C(=O)O)CC2)c2c(C)c(C)c(=O)oc2c1` (stereo not given)?
StopGo reporter: -13.7%; RE007 growth inh: -2.2%; NS1 function inh: -7.9%; SARS PLpro yeast: 4.5%

How did Cc1ccccc1CS(=O)(=O)CCC(=O)NCc1ccc(F)cc1Cl do in these assays?
MARV entry inh: -13.1%[46.1 µM]; StopGo reporter: -11.3%; RE007 growth inh: -14.1%; NS1 function inh: 4.5%; SARS PLpro yeast: -3.9%; LASV entry inh: 1.0%[46.1 µM]

Results for Cc1cccc(CSc2ncnc3c2cnn3Cc2ccccc2)c1 ?
MARV entry inh: -8.2%; StopGo reporter: inconclusive; RE007 growth inh: -12.6%; NS1 function inh: -3.5%; Cruzain Triton: -2.9%; Cruzain noTriton: -3.6%; SARS PLpro yeast: -9.7%; LASV entry inh: -25.2%

How did Cc1sc2ncn(CC(=O)N3CCN(c4cccc(Cl)c4)CC3)c(=O)c2c1S(=O)(=O)N1CCN(c2ncccn2)CC1 do in these assays?
MARV entry inh: inconclusive; StopGo reporter: -29.8%; Cruzain Triton: -4.2%; Cruzain noTriton: inconclusive; LASV entry inh: inconclusive

What do the screens show for `Cn1c(SCC(=O)NC(=O)NCc2ccccc2)nnc1C(F)(F)F`?
RE007 growth inh: -7.8%; SARS PLpro yeast: -2.5%

What do the screens show for `CCC(C)(C)C1CCC(=NNC(=O)c2ccoc2C)CC1` (stereo not given)?
MARV entry inh: inconclusive; StopGo reporter: -7.1%; RE007 growth inh: 15.6%; NS1 function inh: inconclusive; Cruzain Triton: -4.8%; Cruzain noTriton: 2.3%; SARS PLpro yeast: -2.0%; LASV entry inh: -0.9%

Results for COc1cccc(C(=O)C2CCCN(Cc3ccc4nonc4c3)C2)c1 (stereo not given) ?
MARV entry inh: inconclusive; StopGo reporter: -16.6%; RE007 growth inh: 4.0%; NS1 function inh: 3.5%; SARS PLpro yeast: 0.1%; LASV entry inh: -9.1%

How did CCc1ccc(Nc2nc3c(S(=O)(=O)c4cccc(Cl)c4)nnn3c3ccsc23)cc1 do in these assays?
StopGo reporter: 22.9%; Cruzain Triton: -0.2%; Cruzain noTriton: 8.2%; LASV entry inh: 4.1%[46.1 µM]

How did COc1ccccc1C(=O)Nc1ccc2oc(-c3cccc4c(Br)cccc34)nc2c1 do in these assays?
StopGo reporter: 4.4%; Cruzain Triton: -4.4%; Cruzain noTriton: 1.26µM*; LASV entry inh: 3.3%[46.1 µM]

What do the screens show for `COc1ccc(-c2noc(CCC(=O)NCc3cccnc3)n2)cc1OC`?
MARV entry inh: -13.6%; StopGo reporter: 14.2%; RE007 growth inh: -1.8%; NS1 function inh: 6.4%; Cruzain Triton: 1.4%; Cruzain noTriton: -6.0%; SARS PLpro yeast: 2.0%; LASV entry inh: -1.7%
